Compound activity as filed in PubChem BioAssay.
KAT2A inh: qHTS Assay for Inhibitors of GCN5L2 | AID 504327, 2011 | Potency, µM (doses to about 58.9 µM), inactives show top-dose activity change, negative = inhibition, usual class: inhibitors | GCN5L2 HAT assay, ThioGlo1 CoA-SH fluorescence | 0.21% of 390,000 active | Histone acetyltransferase KAT2A (Homo sapiens), Q92830; active = well fitted inhibition curve with a large enough effect; inconclusive = small, poorly fitted or top-dose-only effect, or another doubt; inactive = no such curve, though single readings can be large or run the other way
Target sequence (Q92830 whole entry, looked up): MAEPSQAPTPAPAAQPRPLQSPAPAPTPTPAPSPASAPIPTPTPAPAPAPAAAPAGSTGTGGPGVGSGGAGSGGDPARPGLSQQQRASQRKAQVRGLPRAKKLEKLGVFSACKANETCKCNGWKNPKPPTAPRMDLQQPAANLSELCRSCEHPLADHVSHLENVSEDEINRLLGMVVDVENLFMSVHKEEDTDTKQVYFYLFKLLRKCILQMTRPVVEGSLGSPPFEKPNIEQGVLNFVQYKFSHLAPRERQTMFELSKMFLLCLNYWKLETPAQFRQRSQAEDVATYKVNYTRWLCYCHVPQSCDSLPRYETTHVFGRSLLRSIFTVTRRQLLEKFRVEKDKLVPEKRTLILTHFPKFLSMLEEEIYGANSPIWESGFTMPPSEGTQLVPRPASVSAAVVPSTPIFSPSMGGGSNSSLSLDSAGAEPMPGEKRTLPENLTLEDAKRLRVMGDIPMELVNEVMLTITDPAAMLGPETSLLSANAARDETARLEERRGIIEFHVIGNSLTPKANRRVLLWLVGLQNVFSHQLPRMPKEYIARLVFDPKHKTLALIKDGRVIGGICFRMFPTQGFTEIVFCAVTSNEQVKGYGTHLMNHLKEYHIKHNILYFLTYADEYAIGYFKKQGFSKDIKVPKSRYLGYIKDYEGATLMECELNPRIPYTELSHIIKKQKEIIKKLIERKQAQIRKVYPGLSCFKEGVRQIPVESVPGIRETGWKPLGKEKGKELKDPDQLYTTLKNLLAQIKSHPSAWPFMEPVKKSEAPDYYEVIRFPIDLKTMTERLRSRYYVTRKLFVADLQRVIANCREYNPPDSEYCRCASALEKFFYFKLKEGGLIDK
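GCN5L2 (20nM final) in 50mM HEPES, 0.1mM EDTA pH 7.5, 0.01% Tween-20 was preincubated 15 min at room temperature with compound, then given ThioGlo1 (50uM), H3(1-25) peptide (75uM) and acetyl-CoA (70uM); CoA-thiol fluorescence (Ex340/Em540) was read at 0 and 20 min.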
The depositor's hits bear a star; ? = inconclusive; & = joins results of further samples. % is set by controls: 0 for no effect and ±100 for the full control effect; potency is the fitted concentration of half-maximal effect.

SMILES	KAT2A inh
COCCNC(=S)N/N=C1\CC(C)CC(C)(C)C1 (centres undefined)	1%
Cc1nc(S(=O)(=O)Cc2ccc(Cl)cc2)nc2c1CCC2	-5%
Oc1c(C(c2ccccc2Cl)N2CCOCC2)sc2nc(-c3ccco3)nn12 (centres undefined)	0%
O=C(CSc1n[nH]c(=O)[nH]c1=O)N/N=C/c1ccccc1	-5%
Cc1n[nH]c(C)c1NC(=O)c1cc([N+](=O)[O-])ccc1Cl	-5%
O=C(Nc1ccc(-c2nc3ccccc3o2)cc1)c1cccnc1	-6%
Cc1ccc(S(=O)(=O)N2CCN(C(=O)CSCc3ccc(C(C)C)cc3)CC2)cc1	-11%
COc1ccc(CCNC(=O)COC(=O)CCC(=O)c2ccc(F)cc2)cc1	0%
COc1ccc(Cl)cc1C(=O)N1CCN(c2ccccn2)CC1	-14%
O=C1CC2(CCCC2)C(=O)N1CN1CCN(S(=O)(=O)c2ccc(Cl)c(Cl)c2)CC1	-1%
COc1cccc(-n2c(SCC(=O)Nc3sc4c(c3C(N)=O)CCC4)nc3ccccc3c2=O)c1	?
Cn1c(-c2ccc(F)cc2)cnc1SCC(=O)N1CCCc2ccccc21	2%
CCN1CCN(c2ccc(NC(=O)c3cccc(S(=O)(=O)N4CCCC4)c3)cc2)CC1	1%
Cc1ccc2c(=O)cc(CSCC(=O)Nc3nnc(C)s3)[nH]c2c1	0%
Cc1cccc(OCCn2cc(/C=N/NC(=O)c3ccncc3)c3ccccc32)c1	-11%
Cc1c(-c2nnc(SCC(=O)O)n2-c2ccccc2Br)nnn1-c1ccccc1	0%
COc1ccc(CN2CCC(N3CCC(C(=O)N4CCOCC4)CC3)CC2)c(F)c1	-20%
O=C(NCc1cccs1)c1ccc(Cl)c(S(=O)(=O)N2CCCC2)c1	2%
O=C(N1CCOCC1)n1nnc2ccccc21	1%
Cc1ccc(NC(=O)Cn2c(=O)n(Cc3ccco3)c(=O)c3oc4ccccc4c32)cc1C	-1%
COc1ccc(N2C(=O)C3CCCCC3C2=O)cc1NC(=O)c1ccccc1 (centres undefined)	-5%
CC(C)OC(=O)CCc1nc2ccccc2[nH]c1=O	-19%
CC1CN(S(=O)(=O)c2ccccc2)C(C)CN1S(=O)(=O)c1ccccc1 (centres undefined)	-4%
COc1ccc(CNC(=O)CCCN2C(=O)c3cccnc3Oc3ccc(Cl)cc32)cc1	2%
Cc1nc2nc(-c3ccco3)nn2c(C)c1Cl	-22%
C#CCNC(=O)c1cc2sccc2n1C	-3%
Cc1ccc(OCC(=O)N2CC(C)CC(C)C2)c([N+](=O)[O-])n1 (centres undefined)	1%
O=C(O)c1ccccc1-c1nc(-c2ccccc2)c(-c2ccccc2)[nH]1	-17%
CCO[C@@H]1OC(C(=O)NC2CC2)=C[C@H](C)[C@H]1CCCO	-7%
CC(NC(=O)c1csc2ccccc12)C1CCCO1 (centres undefined)	-7%
COC(=O)c1ccccc1NC(=O)c1cccc(NC(=O)C(C)C)c1	-5%
Cc1cccc(NC(=O)CSc2nnc(CCC(=O)Nc3ccc(C)c(Cl)c3)n2C)c1	-2%
CCO[C@H]1OC(C(N)=O)=C[C@@H](C2CCCCC2)[C@@H]1CCCO	-7%
O=C(CCSc1ccccc1)Nc1ccccc1Br	0%
CC(C)N1CCC(NC(=O)Nc2ccccc2)CC1	5%
CCC(=O)Nc1nnc(SCc2cc(=O)c3cc(C)ccc3[nH]2)s1	-11%
S=C(N/N=C/c1ccc2c(c1)OCO2)NC1CC2CCC1C2 (centres undefined)	-3%
Cc1ccc(S(=O)(=O)N2CCOCC2)cc1C(=O)Nc1ccccc1C(=O)O	2%
O=C(CSc1nc2ccccc2n1CCc1ccccc1)NC1CC1	3%
Cc1cccc(-c2nnc(NC(=O)c3ccc(N4C(=O)CCC4=O)cc3)s2)c1	0%
Cc1cc(C)n2nc(SCC(=O)NC(=O)c3ccccc3)nc2n1	-3%
O=C(c1ccco1)N1CCN(S(=O)(=O)c2cccc(C(F)(F)F)c2)CC1	-9%
CSc1cccc(NC(=O)CN2C(=O)CCc3cc(S(=O)(=O)N4CCCCC4)ccc32)c1	-7%
CCCC(=O)N1c2ncnn2C2(CCCCC2)[C@@H]2CCCC[C@@H]21	-8%
COC(=O)c1ccc(N2C(=O)CC(N3CCOCC3)C2=O)cc1 (centres undefined)	-5%
CCOC(=O)N1CCN(C(=O)c2cnn(-c3cccc(F)c3)c2-n2cccc2)CC1	-12%
COc1ccc([N+](=O)[O-])cc1/C=N/NC(=O)c1nonc1N	-5%
COC(=O)c1oc2c(c1C)C(=O)CC(C)(C)C2	0%
Cc1cc(=O)[nH]c(SCc2cccc(F)c2)n1	1%
CCN(CC)C(=O)c1sc(NC(=O)c2nc3ncccn3n2)c(C(=O)OC)c1C	3%
COc1cccc(CN2CCc3nc(SCC(=O)Nc4ccccc4)[nH]c(=O)c3C2)c1	-3%
COC(=O)[C@H](CC(C)C)NS(=O)(=O)N(Cc1ccccc1)[C@@H](CC(C)C)C(=O)OC	-11%
O=C(N/C=N/O)C1=NOC(CNc2ncc(C(F)(F)F)cc2Cl)C1 (centres undefined)	-7%
CSCCC(NC(=O)c1ccccc1Cl)C(=O)N1CCN(C(c2ccccc2)c2ccccc2)CC1 (centres undefined)	-17%
O=C(CSc1ccccc1[N+](=O)[O-])NC1CCS(=O)(=O)C1 (centres undefined)	-1%
COc1ccc(COn2c(=O)c(C)[n+]([O-])c3ccccc32)cc1OC	-5%
O=C(CN(Cc1ccccc1F)C(=O)Cn1nnc(-c2cccs2)n1)NC1CCCCC1	-5%
CC(C)c1ccc(OCC(=O)NC(=S)Nc2ccc3c4c(cccc24)CC3)cc1	-16%
CCOC(=O)C1CCN(C(=O)C2CCN(C(=O)c3ccc([N+](=O)[O-])cc3)CC2)CC1	-3%
CCn1c2ccccc2c2nnc(SCC(=O)Nc3c(C)n(C)n(-c4ccccc4)c3=O)nc21	-2%

Seven entries picked at random from those above:
SMILES	KAT2A inh
CSCCC(NC(=O)c1ccccc1Cl)C(=O)N1CCN(C(c2ccccc2)c2ccccc2)CC1 (centres undefined)	-17%
CCOC(=O)C1CCN(C(=O)C2CCN(C(=O)c3ccc([N+](=O)[O-])cc3)CC2)CC1	-3%
O=C(N/C=N/O)C1=NOC(CNc2ncc(C(F)(F)F)cc2Cl)C1 (centres undefined)	-7%
CCn1c2ccccc2c2nnc(SCC(=O)Nc3c(C)n(C)n(-c4ccccc4)c3=O)nc21	-2%
CSc1cccc(NC(=O)CN2C(=O)CCc3cc(S(=O)(=O)N4CCCCC4)ccc32)c1	-7%
O=C(CN(Cc1ccccc1F)C(=O)Cn1nnc(-c2cccs2)n1)NC1CCCCC1	-5%
COc1ccc([N+](=O)[O-])cc1/C=N/NC(=O)c1nonc1N	-5%

5 structures already listed, arranged by SMILES length, largest number first.
SMILES	KAT2A inh
COC(=O)[C@H](CC(C)C)NS(=O)(=O)N(Cc1ccccc1)[C@@H](CC(C)C)C(=O)OC	-11%
CSc1cccc(NC(=O)CN2C(=O)CCc3cc(S(=O)(=O)N4CCCCC4)ccc32)c1	-7%
CCOC(=O)N1CCN(C(=O)c2cnn(-c3cccc(F)c3)c2-n2cccc2)CC1	-12%
CCCC(=O)N1c2ncnn2C2(CCCCC2)[C@@H]2CCCC[C@@H]21	-8%
COC(=O)c1oc2c(c1C)C(=O)CC(C)(C)C2	0%

The listing continues.
SMILES	KAT2A inh
Cc1ccc(S(=O)(=O)c2c(C)nn(-c3ccccc3)c2OC(=O)c2ccc(Br)o2)cc1	1%
COc1ccc(N2CCN(S(=O)(=O)c3ccc4c(c3)OCCO4)CC2)cc1	-3%
C=CCC1NCCc2c(Br)cccc21 (centres undefined)	-6%
Cc1ccc(NC(=O)COC(=O)C2=NN(c3ccccc3)C(=O)CC2)c(Br)c1	1%
Cc1cc(NC(=O)C(=O)c2cn(C)c3ccccc23)no1	-6%
CCN(CC(=O)Nc1ccccc1OC)C(=O)Cn1cnc2ccccc2c1=O	-9%
CCC(C)[C@H](NC(=O)NC(C)C)C(=O)O (some centres undefined)	-3%
Cc1ccc(-n2nnnc2SCC(=O)NCC2CCCO2)cc1C (centres undefined)	-4%
O=C(NNC(=S)Nc1ccccc1Cl)c1ccccc1Br	-2%
O=C(CCn1c(=S)[nH]c2cc3c(cc2c1=O)OCO3)NCc1ccc(Cl)cc1	-5%
C[N+](C)(C)CCOC(N)=O	?
CC12C(=O)N(c3ccc(OC(=O)c4ccco4)cc3)C(=O)C1C1c3ccccc3C2c2ccccc21 (centres undefined)	-13%
CC(C)(C)c1ccc(OCC(=O)O)cc1	0%&0%
CSc1ncccc1C(=O)OCC(=O)NCCCc1ccccc1	-1%
O=C(CSc1ccc(-c2cccs2)nn1)NCCc1ccccc1	-6%
Cc1cc(F)c(F)c(C(=O)N2CCOCC2)c1	-3%
O=c1oc2ccccc2c(N2CCCC2)c1CN1CCCC1	-6%
O=C(CN1C(=O)NC2(CCCC2)C1=O)OCCOc1cccc(Cl)c1	-5%
CCN1CCc2nc(NC(=O)Cc3ccc4c(c3)OCCO4)sc2C1	-9%
CCOC(=O)Nc1nnc(Cc2ccc(Cl)c(Cl)c2)s1	-6%

Taken from the entries so far for reference:
SMILES	KAT2A inh
COCCNC(=S)N/N=C1\CC(C)CC(C)(C)C1 (centres undefined)	1%
Cc1nc(S(=O)(=O)Cc2ccc(Cl)cc2)nc2c1CCC2	-5%
Oc1c(C(c2ccccc2Cl)N2CCOCC2)sc2nc(-c3ccco3)nn12 (centres undefined)	0%
O=C(CSc1n[nH]c(=O)[nH]c1=O)N/N=C/c1ccccc1	-5%
Cc1n[nH]c(C)c1NC(=O)c1cc([N+](=O)[O-])ccc1Cl	-5%

Single entries from the list.
`O=c1oc2ccccc2c(N2CCCC2)c1CN1CCCC1` @ KAT2A inh: -6%
`C=CCC1NCCc2c(Br)cccc21` (centres undefined) @ KAT2A inh: -6%

Going on with the list.
SMILES	KAT2A inh
C[C@@H]1C=C[C@](Cc2ccccc2)(C(=O)NCCc2c[nH]c3ccccc23)N1C(=O)c1ccccc1	-3%
COc1cc(S(=O)(=O)N2CCCCC2)c(OC)cc1Br	1%
CCC(C)(C(=O)NC1CCCCC1)N(C(=O)C1CCC(=O)N1)c1ccccc1 (centres undefined)	-1%
CCOc1ccccc1C1NC(=O)NC(C)=C1C(=O)OCc1ccco1 (centres undefined)	-7%
CC(=O)c1cccc(NC(=O)COC(=O)Cn2cnc3ccccc32)c1	0%
O=C(NCc1ccccn1)c1ccc(OC2CCN(Cc3ccccc3O)CC2)cc1	-1%
COc1cccc(C(=O)COc2ccc3c(C)c(Cc4ccccc4)c(=O)oc3c2)c1	-8%
O=C(NCC1CCCN1S(=O)(=O)c1cccs1)C(=O)Nc1cccc(F)c1 (centres undefined)	-1%
Cc1ccc(C(=O)OCC(=O)NC2CCCCCC2)c(C)c1	3%
COc1ccc(OC)c(NC(=O)C2CCN(c3cc(-c4ccccc4)nc4ncnn34)CC2)c1	-11%
COc1ccc(C(C)=O)cc1COC(=O)CSC(C)C(=O)Nc1cc(C)on1 (centres undefined)	2%
COc1ccc(NC(=O)C2CCN(C(=O)c3ccco3)CC2)c(OC)c1	2%
Cc1c(C(N)=O)sc2ncn(CCOc3ccccc3)c(=O)c12	-9%
COc1ccc(C(C(=O)NC2CCCCC2)N(C(=O)CCCC(=O)Nc2ccccn2)c2ccc3c(c2)OCCO3)cc1 (centres undefined)	0%
CCC(C)(C)n1nnnc1C(C(C)C)N(Cc1ccco1)Cc1cc2cc3c(cc2[nH]c1=O)OCO3 (centres undefined)	-1%
CC(=O)N(c1cccc(Cl)c1)c1nc(C)cc(C)c1C#N	1%
Cc1cc(OCC(=O)NC2CCCCC2)ccc1Cl	-2%
COc1cccc(C(C(=O)NC2CCCC2)N(C(=O)c2csnn2)C2CC2)c1 (centres undefined)	-4%
C/C(=N\N=C(N)N)c1ccc(Cl)c(Cl)c1	-6%
CCOc1ccccc1Nc1nc(-c2cccc(Cl)c2)c2c(n1)-c1ccccc1OC2	-5%
Cc1cc(OCCn2cnc3ccccc3c2=O)ccc1[N+](=O)[O-]	0%
O=c1ccc(/C=C/c2ccccc2)nn1Cc1ccccc1Cl	-8%
Cc1cnc(CN(C)Cc2c(C(=O)N3CCCCCCC3)nc3ccc(Cl)cn23)[nH]1	?
CN1CCN(C(=O)c2cc(-c3ccco3)on2)CC1	4%
CCC(=O)N1CCc2cc(S(=O)(=O)NC(CC(C)C)C(=O)Nc3ccc(CC)cc3)ccc21 (centres undefined)	-4%
Cc1c(/C=N\NC(=O)c2ccc([N+](=O)[O-])cc2)cnn1C	-1%
CC(NC(=O)COC(=O)CC(c1ccccc1)c1ccccc1)c1ccccc1 (centres undefined)	-5%
O=C(O)c1ccccc1-n1c2ccccc2c2ccccc21	-2%
Cc1noc(C)c1CSCC(=O)NC1=NCCS1	-1%
COC(=O)CC1C(C)(C)C(=O)C2CC3=C(CC[C@]4(C)C3=CC(=O)OC4c3ccoc3)[C@@]1(C)C2=O (some centres undefined)	0%
CCc1ccc(N2C(=O)Nc3ccccc3C2(O)C(=O)N2CCN(c3ccccn3)CC2)cc1 (centres undefined)	-3%
CCC(=O)OCC(=O)[C@@]1(OC(=O)CC)[C@@H](C)C[C@@H]2[C@H]3CCC4=CC(=O)C=C[C@]4(C)[C@@]3(F)[C@@H](O)C[C@@]21C	-21%
Cc1ccn(CCC(=O)N2c3ccccc3CC2C)n1 (centres undefined)	-7%
CCN1CCN(c2cc(=O)n(-c3cc(Cl)ccc3C)c(=O)[nH]2)CC1	27%
COc1ccc(CNC(=O)COC(=O)[C@H](Cc2ccccc2)NC(=O)c2cccs2)cc1	-4%
CCCCOc1ccc(C(=O)N/C(=C/C=C/c2ccccc2)C(=O)O)cc1	-3%
CC(Oc1ccccc1)c1ccnc2nc(/N=C/N(C)C)nn12 (centres undefined)	-5%
CCOC(=O)NC(=O)CSc1nc2ccccc2[nH]1	-3%

A portion of the library, and most or all hits are left out here.
